PKD1 inh: PKD1 (human) kinase inhibition; Q15139; PKD1 kinase fluorescence polarization assay; inhibition, %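 (about 10 µM by stock and volumes)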; 200,000 compounds, 0.056% hits;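 active means inhibition of 50% or more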;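 further: controls were vehicle for no effect and a reference inhibitor for full effect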
Target sequence (Q15139 whole entry, looked up): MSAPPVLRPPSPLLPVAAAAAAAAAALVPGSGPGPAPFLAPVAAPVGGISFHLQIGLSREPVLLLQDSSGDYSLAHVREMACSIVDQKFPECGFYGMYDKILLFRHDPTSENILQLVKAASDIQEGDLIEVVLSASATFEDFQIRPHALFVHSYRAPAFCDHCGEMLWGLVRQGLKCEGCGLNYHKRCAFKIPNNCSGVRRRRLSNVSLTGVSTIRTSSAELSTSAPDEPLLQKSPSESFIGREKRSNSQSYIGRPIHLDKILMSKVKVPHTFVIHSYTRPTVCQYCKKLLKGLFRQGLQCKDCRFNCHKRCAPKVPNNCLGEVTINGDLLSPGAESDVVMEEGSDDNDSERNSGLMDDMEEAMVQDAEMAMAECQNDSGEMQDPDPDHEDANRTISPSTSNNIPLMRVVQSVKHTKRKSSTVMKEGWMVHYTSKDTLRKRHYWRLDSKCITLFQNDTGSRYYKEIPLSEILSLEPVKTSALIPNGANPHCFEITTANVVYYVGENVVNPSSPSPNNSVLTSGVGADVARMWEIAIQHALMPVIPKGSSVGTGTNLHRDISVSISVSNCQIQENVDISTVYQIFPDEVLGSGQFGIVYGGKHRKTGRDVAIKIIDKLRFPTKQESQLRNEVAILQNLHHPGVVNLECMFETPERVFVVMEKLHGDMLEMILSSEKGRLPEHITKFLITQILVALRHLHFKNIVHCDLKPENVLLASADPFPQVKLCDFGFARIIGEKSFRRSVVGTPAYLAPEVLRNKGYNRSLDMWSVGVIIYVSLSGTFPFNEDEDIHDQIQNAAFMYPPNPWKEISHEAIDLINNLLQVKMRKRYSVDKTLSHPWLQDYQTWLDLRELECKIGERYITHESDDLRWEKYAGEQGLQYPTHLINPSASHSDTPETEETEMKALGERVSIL
Insulin prom inh: TRM-6 insulin promoter activity inhibition; TRM-6 cells (human fetal islet line), insulin promoter-eGFP reporter, imaging; reporter expression induced with tamoxifen; inhibition, % at 2 µM; AID 1273; 130,000 compounds, 0.9% hits;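 active means inhibition above the mean plus 3 SD, with well images judged a real hit on visual review, cut at about 60% in these data, passing the limit was not always enough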
HSV augment: HSV replication enhancement; HSV replication augmentation in cells, fold increase; maximum fold increase; 220,000 compounds, 0.005% hits;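 active means peak rise of 1.5-fold or more in the series; tested in PC3 cells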;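 further: first round at 10 µM; read as green reporter fluorescence; hits show the peak of a series up to 25 µM; 1 = signal of infected wells without compound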
GALR2 agonist: GALR2 (human) receptor agonism; O43603; GALR2-expressing cells, agonist activation read-out; 140,000 compounds, 0.48% hits; activation, %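 (tested at 5 µM)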;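 active means above mean plus 3 SD of all compounds, about 5% in these data, not always enough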;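 further: 0% = vehicle buffer wells and 100% = reference agonist at full effect; tested in CHO reporter cells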
RGS16-Gao: regulators of human RGS16-Galphao interaction. AID 1441. 220,000 compounds, 0.38% hits. bead-based flow cytometry RGS16-Galphao binding, fluorescence; actives lie on both sides. binding response (% of control), % at 10 µM;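 active means below 25% or above 175%, edge rows of some plates excepted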;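 further: Galphao activated by GDP with aluminum fluoride before binding; 100% = wells without compound and 0% = beads without RGS; some results beyond the cut were filed as inactive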
Insulin prom inh cell count: also measured in Insulin prom inh; calls as there; normalized cell count, %; measured here: cell count, toxicity; reference of the scale not given here;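 cells exposed to compound for 48 h; stained nuclei by imaging scaled within each plate; lower means fewer cells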
HSV augment primary fold: also measured in HSV augment; calls as there; fold increase; compound at 10 µM; measured here: primary screen fold increase 10 uM; tested in PC3 cells;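 GFP signal in the first replicate; 1 = infected wells without compound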
The depositor's hits bear a star; i = inactive; nt = no result given.

Short keys: A = PKD1 inh; B = Insulin prom inh; C = Insulin prom inh cell count; D = HSV augment; E = HSV augment primary fold; F = GALR2 agonist; G = RGS16-Gao
> Cc1cc(C)n(-c2nnc(SCC(=O)NC3CCCC3)c3ccccc23)n1
  A: 5; B: -33; C: 88; D: i; E: 0.94; F: -0.8; G: 103
> Cc1ccc([N+](=O)[O-])cc1NC(=O)c1ccc(-c2ccccc2)cc1
  A: -6; B: 27; C: 85; D: i; E: 0.92; F: -1.4; G: 99
> CS(=O)(=O)c1ccc(Cl)c(NC(=O)CCl)c1
  A: 1; B: nt; C: nt; D: i; E: 1.1; F: nt; G: 101
> COCC(=O)Nc1ccc(C)c(Cl)c1
  A: -2; B: 61; C: 41; D: i; E: 0.87; F: -3.5; G: 106
> COc1ccc(N=C2SC(C(=O)O)CC(=O)N2C)cc1 (configuration not stated)
  A: 5; B: 31; C: 95; D: i; E: 1; F: -3.0; G: 104
> O=C(CSc1nc(SCC(=O)NCc2ccccc2)n(-c2ccccc2)n1)NCc1ccccc1
  A: -8; B: -50; C: 48; D: i; E: 0.96; F: -0.3; G: 119
> Cc1ccc(S(=O)(=O)N2CCC(C(=O)N[C@H](C(=O)N3CCN(C)CC3)C(C)C)CC2)cc1
  A: 8; B: nt; C: nt; D: i; E: 0.87; F: -0.6; G: 173
> COc1ccc(N2CC(O)(c3ccc(F)cc3)[N+]3=C2CCCC3)cc1 (configuration not stated)
  A: 0; B: 8; C: 143; D: i; E: 0.98; F: nt; G: 100
> Cc1ccc(/C=C2\CCOC2=O)cc1
  A: nt; B: nt; C: nt; D: i; E: 0.98; F: nt; G: 104
> CCOCC(=O)Nc1cc(C(=O)Nc2ccccc2)ccc1Cl
  A: -16; B: nt; C: nt; D: i; E: 0.99; F: -0.6; G: 98
> Cc1ccccc1Cn1nc(C)c(NC(=O)c2cc(CC(C)C)on2)c1C
  A: nt; B: nt; C: nt; D: i; E: 0.92; F: nt; G: 101
> COc1ccc(CC(=O)OCC(=O)Nc2cccc(Cl)c2)cc1
  A: -7; B: 56; C: 118; D: i; E: 0.99; F: nt; G: 99
> CC(=O)Nc1sc(NC(=O)c2ccc(Cl)cc2)nc1-c1cccs1
  A: 6; B: nt; C: nt; D: nt; E: nt; F: -1.9; G: 99
> COC(=O)c1nc(NC2=NCCCCC2)n[nH]1
  A: -6; B: 8; C: 137; D: i; E: 1.1; F: -0.8; G: 256
> CC1CCN(S(=O)(=O)c2cccc(C(=O)NNC(=O)c3ccco3)c2)CC1
  A: nt; B: nt; C: nt; D: i; E: 1.1; F: nt; G: 103

Rewritten with tabs: 2 of the compounds above
smiles	PKD1 inh	Insulin prom inh	Insulin prom inh cell count	HSV augment	HSV augment primary fold	GALR2 agonist	RGS16-Gao
CC(=O)Nc1sc(NC(=O)c2ccc(Cl)cc2)nc1-c1cccs1	6	nt	nt	nt	nt	-1.9	99
COC(=O)c1nc(NC2=NCCCCC2)n[nH]1	-6	8	137	i	1.1	-0.8	256

Continued:
Short keys: A = PKD1 inh; B = Insulin prom inh; C = Insulin prom inh cell count; D = HSV augment; E = HSV augment primary fold; F = GALR2 agonist; G = RGS16-Gao
> Cc1ccc(NC(=O)c2cc3c(=O)oc4ccc(C)cc4c3s2)nc1
  A: nt; B: nt; C: nt; D: i; E: 0.98; F: nt; G: 94
> Clc1nc(Cl)nc(N(c2ccccc2)c2ccccc2)n1
  A: -7; B: 10; C: 94; D: i; E: 0.94; F: -1.7; G: 103
> O=c1c2ccc([N+](=O)[O-])cc2ncn1CCOc1ccc(Cl)cc1
  A: 6; B: nt; C: nt; D: i; E: 1; F: nt; G: 84
> CCCCCC(=O)N1CCN(CCN=CC2=C(O)CC(c3ccco3)CC2=O)CC1 (configuration not stated)
  A: -6; B: nt; C: nt; D: i; E: 0.92; F: -2.5; G: 99
> CC(=O)Nc1cccc(NC(=O)c2ccc([N+](=O)[O-])cc2Cl)c1
  A: 5; B: 46; C: 94; D: i; E: 0.94; F: 0.5; G: 15
> COc1cc(C2CC(=O)Nc3cc(C)c(C)cc32)cc(OC)c1OC (configuration not stated)
  A: -2; B: -7; C: 104; D: i; E: 0.79; F: -0.4; G: 99
> Cc1nn(-c2ccc3ccccc3c2)c(=O)c2ccccc12
  A: 2; B: nt; C: nt; D: i; E: 1; F: nt; G: 110
> O=C(CN1CCCCC1)Nc1ccccc1-c1ccccc1
  A: -1; B: -11; C: 89; D: i; E: 0.67; F: -2.0; G: i
> Cc1ccc(C(=O)NC(=S)NCC2CCCO2)cc1[N+](=O)[O-] (configuration not stated)
  A: 1; B: -100; C: 116; D: i; E: 0.92; F: nt; G: 102
> O=C(Nc1cccc([N+](=O)[O-])c1)ONC1=NCCCCC1
  A: nt; B: nt; C: nt; D: i; E: 1; F: nt; G: 100
> COc1cc(CNCCN2CCOCC2)ccc1OCc1ccc(Cl)cc1
  A: 0; B: -35; C: 129; D: i; E: 0.79; F: -1.9; G: 99
> COc1cc2c(cc1OC)C(/C=C/c1ccco1)=NCC2
  A: nt; B: nt; C: nt; D: i; E: 1.2; F: nt; G: 105
> Nc1nc(COc2ccccc2)cs1
  A: 0; B: -16; C: 86; D: i; E: 1; F: -0.7; G: 101
> O=C(O)CSC1CC(=O)N(c2ccc(Cl)cc2)C1=O (configuration not stated)
  A: 3; B: 30; C: 101; D: i; E: 0.79; F: -0.6; G: 98
> CN(C)c1nnnn1-c1ccc(Oc2ncc(C(F)(F)F)cc2Cl)cc1
  A: -1; B: -18; C: 73; D: i; E: 1.1; F: nt; G: 124

Some values from the results shown.
Value of COc1cc(C2CC(=O)Nc3cc(C)c(C)cc32)cc(OC)c1OC (configuration not stated) in GALR2 agonist: -0.4
Value of CC(=O)Nc1sc(NC(=O)c2ccc(Cl)cc2)nc1-c1cccs1 in GALR2 agonist: -1.9
Value of CC(=O)Nc1cccc(NC(=O)c2ccc([N+](=O)[O-])cc2Cl)c1 in GALR2 agonist: 0.5
Value of O=C(CSc1nc(SCC(=O)NCc2ccccc2)n(-c2ccccc2)n1)NCc1ccccc1 in Insulin prom inh cell count: 48
Value of CN(C)c1nnnn1-c1ccc(Oc2ncc(C(F)(F)F)cc2Cl)cc1 in HSV augment primary fold: 1.1
Value of COc1ccc(CC(=O)OCC(=O)Nc2cccc(Cl)c2)cc1 in RGS16-Gao: 99
Value of Clc1nc(Cl)nc(N(c2ccccc2)c2ccccc2)n1 in RGS16-Gao: 103

Following part
Short keys: A = PKD1 inh; B = Insulin prom inh; C = Insulin prom inh cell count; D = HSV augment; E = HSV augment primary fold; F = GALR2 agonist; G = RGS16-Gao
> Cc1cc(C(=O)N/N=C/c2c[nH]c3ccccc23)cs1
  A: -8; B: -20; C: 55; D: i; E: 0.85; F: 0.4; G: 91
> N#CC/C(N)=N/NC(=O)CCCNc1ncc(C(F)(F)F)cc1Cl
  A: -3; B: nt; C: nt; D: i; E: 0.84; F: nt; G: 95
> COc1cc(C(=O)OC2CCN(C)CC2)cc(OC)c1OC
  A: 20; B: nt; C: nt; D: i; E: 1; F: -1.4; G: 104
> COc1ccc(N(CC(=O)Nc2ccccc2C(=O)NCC(C)C)S(C)(=O)=O)cc1
  A: 2; B: -31; C: 95; D: i; E: 0.98; F: -1.5; G: 89
> CCOc1ccccc1/C=c1\sc2nc(-c3ccco3)nn2c1=O
  A: -3; B: 36; C: 108; D: i; E: 0.96; F: -1.9; G: 105
> CCC(C(=O)NC1CCCCC1)n1c(SCc2cccc(F)c2)nc2ccncc21 (configuration not stated)
  A: -6; B: 30; C: 88; D: i; E: 1.1; F: 0.3; G: 98
> Cc1cc(C)n(-c2ccc(C(=O)Nc3cc(C(F)(F)F)ccc3N3CCOCC3)cc2)n1
  A: -2; B: -40; C: 76; D: i; E: 1; F: -1.5; G: 103
> O=C(CSc1cccc[n+]1[O-])NCC1CCCCC1
  A: -2; B: nt; C: nt; D: i; E: 1.1; F: nt; G: 102
> O=C(c1ccc2c(=O)n(-c3ccccc3)c(=O)[nH]c2c1)N1CCN(c2ccc(F)cc2)CC1
  A: 3; B: nt; C: nt; D: i; E: 0.77; F: -2.2; G: 99
> COc1ccc(CCNC(=O)C2CC(c3ccccc3F)=NO2)cc1 (configuration not stated)
  A: nt; B: nt; C: nt; D: i; E: 0.99; F: nt; G: 97

Single records, as listed above.
COc1cc(C(=O)OC2CCN(C)CC2)cc(OC)c1OC is listed with PKD1 inh: 20; Insulin prom inh: nt; Insulin prom inh cell count: nt; HSV augment: i; HSV augment primary fold: 1; GALR2 agonist: -1.4; RGS16-Gao: 104
Cc1cc(C(=O)N/N=C/c2c[nH]c3ccccc23)cs1 is listed with PKD1 inh: -8; Insulin prom inh: -20; Insulin prom inh cell count: 55; HSV augment: i; HSV augment primary fold: 0.85; GALR2 agonist: 0.4; RGS16-Gao: 91
